Compound activity as filed in PubChem BioAssay.
Beta apoptosis: inhibitors of cytokine-induced beta cell apoptosis, primary screen, luminescence. INS-1E cytokine-induced death, ATP luminescence, 48 h; percent of positive-control rescue, neutral wells zero. protection from apoptosis, % (concentration not given with the values). actives 0.8% (n = 300,000). AID 435005, 2010;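 active = all replicates at 75% or more, or half of them and the mean; inconclusive = half reach 75% but not the mean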;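 also: 0% = cytokine-treated negative control wells and 100% = positive control rescue; higher means more ATP so stronger rescue from cytokine killing; wells of about 40 µL received 100 nL stock; the first replicate is given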
RanGTP-Impb inh: inhibitors of RanGTP-importin-beta interaction, primary screen, biochemical, FRET, CFP-Ran, YFP-importin-beta, homogeneous; cell-free CFP-Ran/YFP-importin-beta FRET ratio; actives 1.1% (n = 300,000); inhibition, % (test concentration not listed); Ran GTPase (GTP-bound) - importin-beta complex;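 active = most replicates above 15%; inconclusive = exactly half above 15%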;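 also: 0% = DMSO wells and 100% = Ran loaded with GDP instead of GTP; wells of about 40 µL received 100 nL stock; the first replicate is given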
LANA-H2A inh: blockers of LANA interaction with H2A/H2B – biochemical, FP readout, HTS, primary screen | actives 0.6% (n = 320,000) | inhibition, % (no concentration beside the values) | AID 2629, 2010 | cell-free LANA-H2A/H2B peptide, fluorescence polarization | Protein LANA1 (Human herpesvirus 8 type P (isolate GK18)), Q9QR71; in the data active = inhibition mostly above about 10%, no sharp cut-off; inactive = mostly below about 6.7%;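 also: stock transfer was 7.5 nL into about 10 µL; 0% = median of vehicle wells and 100% = median of positive control wells; one replicate is shown; the record names a cut of 25% in any replicate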
A1 inh: caspase 3/7 activation in MEF A1-2A-BIM cells, primary screen, A1 inhibitor project, cell-based, luminescence, HTS | Caspase-Glo 3/7 luminescence, 3 h; percent of clofoctol response, vehicle zero | caspase activation, % (concentration not given with the values) | actives 0.066% (n = 330,000) | AID 2462, 2010;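 active = over half of replicate activation scores above 10%, or exactly half above 10 with the replicate mean above 10; inconclusive = replicate mean below 10 yet half the replicates above 10; inactive = over half of replicates below 10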;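 also: wells of about 30 µL received 50 nL stock; many hits fall short of the cut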
B2AR ag: beta2AR agonists driving receptor internalization, primary screen, cell-based, FAP fluorogen, flow cytometry. AID 504454, 2011. response, % (concentration not given with the values). Am2.2-beta2AR cells; reference of the scale not given here. actives 0.43% (n = 340,000);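 active = response above a set limit, near 3 SD of response in nonfluorescent compounds, cut at about 42% in these data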;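 also: stock transfer was 100 nL into about 11 µL; a reference agonist was the positive control; negative values mostly stem from fluorescent compounds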
Target sequence (P07550 whole entry, looked up): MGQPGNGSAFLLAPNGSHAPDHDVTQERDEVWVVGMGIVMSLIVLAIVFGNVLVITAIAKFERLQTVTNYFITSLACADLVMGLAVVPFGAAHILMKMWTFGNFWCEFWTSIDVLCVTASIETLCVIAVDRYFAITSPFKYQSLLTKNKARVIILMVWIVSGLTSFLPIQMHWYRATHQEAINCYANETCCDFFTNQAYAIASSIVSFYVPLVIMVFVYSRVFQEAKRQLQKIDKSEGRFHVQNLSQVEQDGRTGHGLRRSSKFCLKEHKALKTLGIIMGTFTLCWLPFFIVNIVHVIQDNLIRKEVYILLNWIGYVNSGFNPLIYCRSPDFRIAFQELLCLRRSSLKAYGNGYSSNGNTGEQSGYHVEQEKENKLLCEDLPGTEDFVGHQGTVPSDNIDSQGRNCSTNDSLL
Calb FLC: C. albicans growth inhibition with fluconazole, primary screen, CaCi-2 strain, Alamar Blue fluorescence; actives 0.57% (n = 300,000); C. albicans CaCi-2 (fluconazole-resistant clinical isolate) + fluconazole, 48 h; growth inhibition, % (test concentration not listed); AID 1979, 2009;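 active = most replicates above 75%; inconclusive = exactly half above 75%; inactive = most below 75%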;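 also: all wells also contain fluconazole at 8 µg/ml as a sub-toxic cotreatment; 0% = median of DMSO wells and 100% = median of geldanamycin control wells; wells of about 8 µL received 7.5 nL stock; the first replicate is given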
T cruzi repl: inhibitors of intracellular T. cruzi growth, primary screen, luminescence, NIH3T3 host cells | inhibition, % (concentration not given with the values) | T. cruzi beta-gal in NIH3T3, 90 h | actives 1.4% (n = 300,000) | AID 1885, 2009;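 active = mean inhibition across valid replicates above about 55%, limit read from the data; inconclusive = mean below that limit but half or more replicates reach it; inactive = mean below it, under half of replicates reach it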;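 also: signal also drops with host cell toxicity which is not excluded here; 0% = plate median of DMSO wells and 100% = zero luminescence signal; higher percent means less beta-gal luminescence so fewer parasites; stock transfer was 50 nL into about 50 µL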
UCH37 inh: inhibitors of human UCH37 deubiquitinase, primary screen, biochemical, Ub-AMC cleavage, fluorescence. Ubiquitin carboxyl-terminal hydrolase isozyme L5 (Homo sapiens), Q9Y5K5. purified proteasome/UCH37. inhibition, % (no concentration beside the values). actives 0.33% (n = 330,000);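 active = mean of two replicates above 20%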;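 also: 0% = compound-free wells with enzyme and 100% = wells lacking proteasome; stock transfer was 100 nL into about 20 µL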
Target sequence (Q9Y5K5 whole entry, looked up): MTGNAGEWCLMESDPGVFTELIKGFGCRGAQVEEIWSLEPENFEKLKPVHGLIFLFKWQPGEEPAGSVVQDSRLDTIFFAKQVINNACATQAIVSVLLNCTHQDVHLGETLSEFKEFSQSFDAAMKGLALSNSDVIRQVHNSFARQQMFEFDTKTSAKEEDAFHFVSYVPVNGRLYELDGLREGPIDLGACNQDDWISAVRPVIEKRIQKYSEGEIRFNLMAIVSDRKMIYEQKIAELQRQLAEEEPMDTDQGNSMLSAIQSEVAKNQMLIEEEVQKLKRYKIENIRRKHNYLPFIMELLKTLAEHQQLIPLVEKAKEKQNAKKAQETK
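Signal – fluorescence, ex 355 nm, em 460 nm · System – Proteasome-bound UCH37 · Input – 0.15 nM proteasome as dispensed · Timing – 30 min preincubation with enzyme, 25 min cleavage at room temperature · Read-out basis – percent inhibition of cleavage signal versus uninhibited and no-proteasome wells · Medium – Tris-HCl pH 7.4 with ATP-MgCl2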
Active calls of the source: *.

For COCC(=O)Nc1nc(-c2ccccc2)ns1 the results were Beta apoptosis 5, RanGTP-Impb inh -5.5, LANA-H2A inh 3.4, A1 inh -0.5, B2AR ag 25, Calb FLC 2, T cruzi repl -20 and UCH37 inh 0.7.
`CC(CN1CCC(O)CC1)c1ccccc1` (stereo not given) gave Beta apoptosis -12, RanGTP-Impb inh inconclusive, LANA-H2A inh -7.5, A1 inh 0.1, B2AR ag 6, Calb FLC -2, T cruzi repl 4 and UCH37 inh 0.5.
For CCCCCOC(=O)Cn1c(N2CCOCC2)nc2c1c(=O)[nH]c(=O)n2C the results were Beta apoptosis -1, RanGTP-Impb inh 2.4, LANA-H2A inh -2.8, A1 inh -0.2, B2AR ag -7, Calb FLC -5, T cruzi repl -24 and UCH37 inh 2.6.
`O=C(c1cccs1)n1nc(-c2ccco2)nc1SCc1ccccc1` gave Beta apoptosis -12, RanGTP-Impb inh 2.0, LANA-H2A inh 0.7, A1 inh 0.1, Calb FLC -2, T cruzi repl -16 and UCH37 inh 5.4.
Screening C=CCn1c(SCC(=O)NNC(=O)Nc2cccc(Cl)c2)nnc1-c1ccccc1 returned Beta apoptosis -15, RanGTP-Impb inh 1.7, LANA-H2A inh -1.5, A1 inh 0.2, B2AR ag -12, Calb FLC 12, T cruzi repl 19 and UCH37 inh 1.9.
COc1cc(/C=N/N(CCO)C2=NS(=O)(=O)c3ccccc32)cc(OC)c1OC was read as Beta apoptosis 6, RanGTP-Impb inh 3.1, LANA-H2A inh 4.0, A1 inh 0.6, B2AR ag 6, Calb FLC -6 and T cruzi repl -3.
For CC(C)(C)OC(=O)C[C@@H]1C/C=C\C[C@H](CC(=O)NCCO)C(=O)N2CCC[C@@H]2COC1=O the results were Beta apoptosis 4, LANA-H2A inh 7.1, A1 inh -0.6, B2AR ag 2 and UCH37 inh -0.4.
`Cc1nc(S(=O)(=O)N2CCOCC2)c(C#N)c(C)c1Cl` gave Beta apoptosis -3, RanGTP-Impb inh -1.4, LANA-H2A inh -7.2, A1 inh -0.3, B2AR ag 6, Calb FLC 4, T cruzi repl -17 and UCH37 inh 0.9.
O=C(NNc1ccc(-c2csnn2)cc1)c1ccccc1C(F)(F)F was read as Beta apoptosis 1, RanGTP-Impb inh -0.4, LANA-H2A inh -0.8, A1 inh 0.2, B2AR ag -3, Calb FLC -1, T cruzi repl 4 and UCH37 inh 3.5.
`O=[N+]([O-])c1ccc(S(=O)(=O)N2CCN(Cc3c[nH]c4ccccc34)CC2)cc1` gave Beta apoptosis 0, RanGTP-Impb inh inconclusive, LANA-H2A inh 3.7, B2AR ag 34, Calb FLC 4, T cruzi repl 74* and UCH37 inh 1.1.
Screening CC1(C)CC(=O)C=C(Nc2ccccc2O)C1 returned Beta apoptosis -4, RanGTP-Impb inh 16*, LANA-H2A inh -1.2, A1 inh 0.1, B2AR ag -1, Calb FLC -2, T cruzi repl 10 and UCH37 inh -1.6.
Screening Cc1nc(NC(=O)COC(=O)CCc2nc3ccccc3s2)c(Cl)cc1Cl returned Beta apoptosis -9, RanGTP-Impb inh -1.9, LANA-H2A inh -1.2, A1 inh 0.0, B2AR ag -6, Calb FLC 54, T cruzi repl -10 and UCH37 inh 1.0.
O=C(Nc1ccc(N2CCN(C(=O)c3ccc(Cl)cc3)CC2)cc1)c1cccs1 was read as Beta apoptosis -2, RanGTP-Impb inh -0.4, LANA-H2A inh -0.5, A1 inh -0.5, B2AR ag -7, Calb FLC -2, T cruzi repl -14 and UCH37 inh 2.9.
For CCCn1c(SCC(=O)NCCCN2CCCC2=O)nc2ccccc2c1=O the results were Beta apoptosis 3, LANA-H2A inh -5.9, A1 inh 0.1, B2AR ag 3 and UCH37 inh 2.3.
`C=CCNc1nc(-c2ccccn2)nnc1-c1ccccc1` gave Beta apoptosis 4, RanGTP-Impb inh 4.1, LANA-H2A inh -2.5, A1 inh -1.0, B2AR ag -16, Calb FLC -88, T cruzi repl 69* and UCH37 inh 4.3.
O=C(NCc1cccs1)C1CCCN(c2nc3ccccc3o2)C1 (stereo not given) was read as Beta apoptosis -1, RanGTP-Impb inh -4.2, LANA-H2A inh -2.3, A1 inh 0.5, B2AR ag -5, Calb FLC 27, T cruzi repl -14 and UCH37 inh 1.2.
`CC1Cc2ccccc2N1C(=O)COC(=O)c1ccc(N(C)C)cc1` (stereo not given) gave Beta apoptosis -1, LANA-H2A inh -2.8, A1 inh 0.4, B2AR ag 7 and UCH37 inh -5.4.
CCC1Oc2ccc(C)cc2N(CC(=O)NCCC2=CCCCC2)C1=O (stereo not given) was read as Beta apoptosis 3, RanGTP-Impb inh -1.7, LANA-H2A inh -1.0, A1 inh 0.2, B2AR ag 5, Calb FLC 1, T cruzi repl 11 and UCH37 inh 1.4.
COc1cc(CC(=O)OCC(=O)Nc2ccc(N3CCOCC3)cc2)cc(OC)c1OC was read as Beta apoptosis 2, RanGTP-Impb inh 2.5, LANA-H2A inh 0.3, A1 inh 0.3, B2AR ag 7, Calb FLC 5, T cruzi repl 7 and UCH37 inh 1.3.
For Fc1ccc2[nH]c3c(N4CCN(c5ccccc5)CC4)ncnc3c2c1 the results were Beta apoptosis 89*, RanGTP-Impb inh inconclusive, LANA-H2A inh 5.9, A1 inh 1.4, B2AR ag 17, Calb FLC 2, T cruzi repl 11 and UCH37 inh -3.9.
For Cc1ccc(NC(=O)c2ccc(F)cc2)cc1S(=O)(=O)N1CCCCCC1 the results were Beta apoptosis 2, RanGTP-Impb inh 3.4, LANA-H2A inh -20, A1 inh 0.1, B2AR ag -4, Calb FLC inconclusive, T cruzi repl 25 and UCH37 inh 2.3.
Screening CC(=O)N1CCN(CC(=O)Nc2ccccc2Sc2ccc(Cl)cc2)CC1 returned Beta apoptosis 6, RanGTP-Impb inh -1.3, LANA-H2A inh 2.7, A1 inh 0.2, B2AR ag -10, Calb FLC -5, T cruzi repl 0 and UCH37 inh 4.6.
`CC(C)OCCCNc1ncnc2c1cnn2-c1ccccc1` gave Beta apoptosis 2, RanGTP-Impb inh 1.8, LANA-H2A inh -2.8, A1 inh 0.3, B2AR ag 8, Calb FLC -5, T cruzi repl -1 and UCH37 inh -0.8.
Cc1cccn2c(=O)c(/C=C(\C#N)S(=O)(=O)c3ccccc3)c(Oc3ccc(Cl)cc3)nc12 was read as Beta apoptosis 1, RanGTP-Impb inh 27*, LANA-H2A inh -4.2, A1 inh -0.8, B2AR ag -13, Calb FLC 4, T cruzi repl 4 and UCH37 inh -19.
`O=C(Nc1ccc(N2CCOCC2)nc1)c1ccccc1Cl` gave RanGTP-Impb inh -0.6, LANA-H2A inh 2.4, A1 inh 0.0, B2AR ag 4, Calb FLC -1, T cruzi repl -5 and UCH37 inh 5.0.
For Cc1ccc2c(=O)cc(C(=O)NCCc3ccc(S(N)(=O)=O)cc3)oc2c1 the results were RanGTP-Impb inh -1.8, LANA-H2A inh 12, A1 inh 0.1, B2AR ag 3, Calb FLC 1, T cruzi repl -15 and UCH37 inh 3.9.
Screening COc1ccc(C)cc1NC(=O)C(c1ccccc1)N1CCNC(=O)C1 (stereo not given) returned Beta apoptosis -4, RanGTP-Impb inh -1.6, LANA-H2A inh 2.4, A1 inh 0.3, B2AR ag -9, Calb FLC 16, T cruzi repl -5 and UCH37 inh -0.3.
CCc1ccc(C(=O)NNC(=O)c2n[nH]c(=O)c3ccccc23)cc1 was read as Beta apoptosis -2, LANA-H2A inh 0.6, A1 inh -1.2, B2AR ag 7 and UCH37 inh 1.9.
Screening CCC(C)(C)C1CCC2(CC1)NC(CO)(CO)CO2 (stereo not given) returned Beta apoptosis 0, RanGTP-Impb inh 2.8, LANA-H2A inh -1.8, A1 inh 0.7, B2AR ag 10, Calb FLC -2, T cruzi repl -6 and UCH37 inh 0.9.
For C=Cc1ccc2c(c1)N(C)C(=C)S2 the results were Beta apoptosis -11, RanGTP-Impb inh 0.6, LANA-H2A inh 3.8, A1 inh -1.5, B2AR ag 0, Calb FLC 4, T cruzi repl 7 and UCH37 inh 4.2.
Screening Cc1ccc(Nc2nc(C(=O)N3CCC(C(=O)N4CCN(C)CC4)CC3)cs2)cc1 returned Beta apoptosis -1, RanGTP-Impb inh -5.8, LANA-H2A inh 4.6, A1 inh -0.6, B2AR ag 6, Calb FLC -1, T cruzi repl -4 and UCH37 inh 0.9.
Cc1ccc2c(c1)NCC(C(=O)NC1CCC(C)CC1)O2 (stereo not given) was read as Beta apoptosis -8, RanGTP-Impb inh -1.7, LANA-H2A inh 1.6, A1 inh 0.6, B2AR ag 3, Calb FLC 3, T cruzi repl 1 and UCH37 inh 4.9.
For COC(=O)C1=C(C)NC(=O)NC1c1cn(-c2ccccc2)nc1-c1cccs1 (stereo not given) the results were Beta apoptosis -1, RanGTP-Impb inh 0.9, LANA-H2A inh 1.3, A1 inh -1.8, B2AR ag -11, Calb FLC -2, T cruzi repl 11 and UCH37 inh 3.2.
CN1CCN(S(=O)(=O)c2ccc(NC(=O)c3ccc(Br)s3)cc2)CC1 was read as Beta apoptosis -9, RanGTP-Impb inh -4.7, LANA-H2A inh -3.5, A1 inh -0.1, B2AR ag 0, Calb FLC -3, T cruzi repl 5 and UCH37 inh 1.3.
For C=CCOc1ccc(/C=C(\C#N)C(=O)Nc2ccccn2)cc1OC the results were Beta apoptosis -2, RanGTP-Impb inh 6.9, LANA-H2A inh -0.8, A1 inh 1.3, B2AR ag -3, Calb FLC -1, T cruzi repl -6 and UCH37 inh -40.
COc1ccc(/C=C/C(=O)Nn2cnnc2)cc1 was read as Beta apoptosis -2, RanGTP-Impb inh -4.3, LANA-H2A inh -2.4, A1 inh -0.6, B2AR ag 0, Calb FLC 11, T cruzi repl -15 and UCH37 inh 2.2.
For Cc1ccccc1NC(=O)CSc1nnc(C2CC2)n1CC1CCCO1 (stereo not given) the results were Beta apoptosis 9, RanGTP-Impb inh 1.5, LANA-H2A inh -6.9, A1 inh -0.8, B2AR ag -6, Calb FLC -11, T cruzi repl 8 and UCH37 inh 1.8.
Cc1[nH]c2ccccc2c1-c1nc2ccccc2[nH]c1=O was read as Beta apoptosis 4, RanGTP-Impb inh -0.1, LANA-H2A inh -1.2, A1 inh -0.1, B2AR ag -14, Calb FLC -8, T cruzi repl -14 and UCH37 inh -1.2.
Screening CCCS(=O)(=O)c1c(S(=O)(=O)CCC)c2cnccn2c1C(=O)c1ccc(OC)cc1 returned Beta apoptosis -7, RanGTP-Impb inh -1.4, LANA-H2A inh 5.1, A1 inh 0.6, B2AR ag -3, Calb FLC -11, T cruzi repl 5 and UCH37 inh 4.5.
